High-throughput results deposited in PubChem BioAssay by PCMD.
Calb biofilm kill – mixtures killing C. albicans biofilm; C. albicans biofilm persisters + clotrimazole, fluorescence viability; primary screen in compound mixtures of four per well; inhibition, % at 7.6 µM; 120,000 tested, 0.02% active; AID 1242;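 active = inhibition above 30.3% in the primary screen of four-compound pools, then above 30% when the compound was retested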;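 note: compounds exposed to preformed 24 h biofilms for 48 h; the number belongs to the whole pool; some results filed as inactive read as strong as hits; inactives centre near 12; 0% = biofilm with clotrimazole alone and 100% = kill control; retested singly at about 60 µM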
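Probe or stimulus – Clotrimazole 50 µg/mL co-treatment · System – C. albicans biofilms · Schedule – 24 h biofilm formation, then 48 h compound exposure, 37 °C · Evaluation – percent inhibition of biofilm viability · Technique – 2-h Alamar Blue fluorescence, 535/590 nm excitation/emission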
* hit, by the source's call. A portion of the library, so the mix of outcomes need not match the whole.

mol | Calb biofilm kill
Cc1cc(/C=C2\SC(=S)N(C)C2=O)c(C)n1-c1cccc(O)c1 | -2
N#CC(=C=[N-])c1nc2ccccc2nc1-[n+]1ccccc1 | 23
Cc1ccc(Cl)cc1N1CCN(CC(O)COCc2ccco2)CC1 (stereo unspecified) | 19
C=CCOc1c(Br)cc(CNc2nccs2)cc1OC | 15
Cc1c([N+](=O)[O-])c(C(=O)Sc2ccc(Br)cc2)nn1C | 14
COc1cccc(C(C(=O)NC2CCCC2)N(Cc2ccccc2OC)C(=O)c2ccco2)c1 (stereo unspecified) | 18
Cc1ccc(CNC(=O)C2CN(S(C)(=O)=O)c3cc(Cl)ccc3O2)cc1 (stereo unspecified) | 15
COc1cc2cc(CN(CCc3ccccc3C)C(=S)NCCCN(C)C)c(=O)[nH]c2cc1OC | 6
Cc1nonc1CC(=O)N1CCCC(C(=O)c2cccc(C(F)(F)F)c2)C1 (stereo unspecified) | 10
CC(=O)c1ccc(Nc2cc(C)nc3ccccc23)cc1 | 19
COc1ccc(C(c2c(C)[nH]n(C(N)=S)c2=O)C(C#N)C#N)cc1 (stereo unspecified) | 11
CCOC(=O)C1=C(SCC)c2cc3c(n2C1=O)CCCC3 | 8
Cc1cc([N+](=O)[O-])cc(/C=N\NC(=O)C2COc3ccccc3O2)c1O (stereo unspecified) | 1
COc1ccc(C(=O)NC(=S)N2CCOCC2)cc1OC | 2
CC(=O)N1CCC(c2c[nH]c3ccccc23)CC1 | 8
O=C(O)C1CSC(c2ccccc2Cl)N1C(=O)c1ccc(Cl)cc1 (stereo unspecified) | 18
Cc1cc(C)cc(NC(=O)c2cc(C)nn2C)c1 | 10
O=C1c2cccc3cccc(c23)C(=O)N1CCCN(C(=O)c1cccs1)c1cccc(F)c1 | 2
CCN(CC)S(=O)(=O)c1ccc(OC)c(NC(=O)COc2ccccc2[N+](=O)[O-])c1 | 10
C=CCNC(=O)N[C@@H](Cc1ccccc1)C(=O)OC | 8
CC(=O)Nc1cc(O)cc(O)c1 | 8
Oc1ccc(/C=N/Nc2ncc(Br)cn2)c(O)c1 | 27
COc1ccc(NC(=O)c2ccc(-c3ccc(OC)cc3)s2)cc1 | 15
COc1cc(NC(=O)C/C(C)=N/NC(=O)c2cccs2)c(OC)cc1Cl | 22
COc1ccc(S(=O)(=O)N2CCCCC2)cc1NS(=O)(=O)c1ccccc1F | 8
O=C(NN=C1CCN(Cc2ccccc2)CC1)C(O)c1ccccc1 (stereo unspecified) | 15
COc1ccccc1-c1nnn(C/C(N)=N/O)n1 | -12
CCCCNC(=S)NNC(=O)c1csc(C)c1 | 16
CC1=[N+](C)c2ccc3ccccc3c2C1(C)C | 17
CCN(CC)CCCNC(=O)c1ccc2c(Cl)c3c(nc2c1)CCCC3 | 10
COc1ccccc1NS(=O)(=O)c1cccc(NC(=O)Nc2cccc(Cl)c2)c1 | 6
O=C(NC(Cc1ccccc1)C(=O)O)/C(=C/c1ccco1)NC(=O)c1cccc([N+](=O)[O-])c1 (stereo unspecified) | 13
c1ccc(COC2CCCN(Cc3nc(-c4cccs4)no3)C2)nc1 (stereo unspecified) | 16
CCOC(=O)CSc1nnc(-c2ccc([N+](=O)[O-])cc2)o1 | 25
CC(=O)Oc1ccc(-c2ccc(C(=O)Nc3cccc(S(=O)(=O)N4CCOCC4)c3)cc2)cc1 | 8
CCC(=O)NC(Nc1cc(C)cc(C)n1)(C(F)(F)F)C(F)(F)F | 8
COc1ccccc1N1CCN(C(=O)c2ccc3[nH]c4c(c3c2)CCCC4)CC1 | 1
O=C(Nc1sc(-c2ccccc2)cc1C(=O)O)c1ccccc1 | 19
COC(=O)C(Cc1ccccc1)NC(=O)c1cccc(S(=O)(=O)N(C)C)c1 (stereo unspecified) | 7
CCCNC(=O)OC[C@H]1O[C@H](CCO/N=C/C[C@@H]2C=C[C@H](OC(C)=O)[C@@H](COC(C)=O)O2)C=C[C@@H]1Oc1ccc(OC)cc1 | 9
CCCNC(=O)c1ccccc1NS(=O)(=O)c1ccc(OC)c(OC)c1 | 0
CCC1(C)Cc2c(C#N)c(N)n(-c3ccccc3)c(=S)c2CO1 (stereo unspecified) | 14
COC(=O)c1cccc(NC(=O)NC(=O)c2ccccc2Cl)c1 | 12
CCc1ccc(C(=O)OCC(=O)c2c(N)n(CC(C)C)c(=O)n(C)c2=O)cc1 | -2
CC(C)[C@H](NS(=O)(=O)c1cccc(C(F)(F)F)c1)C(=O)OCC(N)=O | 14
O=C(Nc1ccc(F)cc1)C(Sc1nnc2ccccn12)c1ccccc1 (stereo unspecified) | 4
CN(CCC#N)c1ccc(/C=C(\C#N)c2ccccn2)cc1 | 9
CCOc1ccc(C(CC(=O)O)NC(=O)c2cccs2)cc1 (stereo unspecified) | 8
C#CCOCCOCCOCCNc1nc(N2CCN(C(=O)[C@H](CCCCN)n3cc(C(N)CC(C)C)nn3)CC2)nc(N2CCN(C(=O)[C@H](CCC(=O)O)n3cc(C(N)[C@H](C)CC)nn3)CC2)n1 (stereo partly specified) | 11
COCCNC(=O)CSc1ncnc2sc(-c3ccccc3)cc12 | 15
CCC(=O)Nc1cccc(C2=NOC3(C2)C[C@@H](C(N)=O)N(C(=O)CC)C3)c1 (stereo partly specified) | 15
COc1cc(NC(=O)C2=C(N3CCOCC3)/C(=C\c3ccc(Br)cc3)CC2)cc(OC)c1OC | 10
CCOC(=O)CSc1nn(-c2ccccc2)c(=S)s1 | 48
COc1ccccc1CNc1ncnc2c1cnn2-c1ccccc1 | 15
CCOC(=O)N1CCC(=NNC(=O)COc2cccc(C)c2)CC1 | 23
COc1cc(NC(=O)c2ccc(F)cc2)c(OC)cc1Cl | 14
N#CC1=C(N)Nc2ncnn2C1c1ccc([N+](=O)[O-])cc1 (stereo unspecified) | 22
C=CCOc1cccc(/C=C2\C(=O)N(Cc3ccc(C)cc3)C(C)=C2C(=O)OC)c1 | 10
Cc1[nH]c(C(=O)N/N=C/c2ccc(C(=O)O)cc2)c(C)c1C(=O)N/N=C/c1ccc(C(=O)O)cc1 | 0
O=C1Nc2ccccc2CCC1Sc1nnc(-c2ccc(Cl)cc2)s1 (stereo unspecified) | 9

New compounds follow.
mol | Calb biofilm kill
COc1ccc(NS(=O)(=O)c2cc(NC(=O)c3cc(=O)c4ccccc4o3)ccc2OC)cc1 | 10
Nc1c(C(=O)O)cnc2c(-c3ccc(Cl)cc3)cnn12 | 17
COC(=O)C1=C(CSc2nc3c(cc2C#N)CN(C)CC3)OC(N)=C(C#N)C1c1ccc(F)cc1 (stereo unspecified) | 12
COc1ccc2nc(/C=N/NC(=O)CCNC(=O)OC(C)(C)C)ccc2c1 | 15
COc1ccc(CN2CCN(CCCCOc3ccc(Cl)cc3)CC2)c(OC)c1OC | 11
CN(Cc1cccs1)C(=O)CSc1nc2ccccc2[nH]1 | 3
Cn1cc(/C=C/C(=O)N2CCCC(C(=O)c3cccc(C(F)(F)F)c3)C2)cn1 (stereo unspecified) | 14
CCNS(=O)(=O)c1cc(OC)c(Cl)cc1OC | 7
Cc1ccc(NC(=O)c2ccc(S(=O)(=O)NCC3CCCO3)cc2)cc1C (stereo unspecified) | -3
COC(=O)N/N=C/c1ccccc1OCCOc1ccc(OC)cc1 | 19
CCn1c(N2CCN(CC(=O)c3c(C)n(C)c4ccc(OC)cc34)CC2)nc2c1c(=O)[nH]c(=O)n2C | 20
C=CCn1c(=O)c2ccc(C(=O)NCc3ccccc3)cc2n(Cc2ccc(C)cc2)c1=O | 3
Cc1cc2c(Nc3ccccc3)ncnc2s1 | -6
Cc1c(C(=O)NNS(=O)(=O)c2ccccc2Cl)sc(=S)n1C | 21
Cc1ccccc1-n1cnc2c(sc3nc(N4CCOCC4)c4c(c32)CCCC4)c1=O | -4
COc1cccc2cc(C(=O)N3C(C)CCCC3C)c(=O)oc12 (stereo unspecified) | -5
CC(=O)N(c1ccc(Cl)cc1)c1cn(C(C)=O)c2ccccc12 | 16
Cc1cc(C2=NNC(=Nc3ccccc3)SC2)c(C)n1C | 5
CCOC(=O)C(CC(=O)O)NCc1ccco1 (stereo unspecified) | 16
O=C(NC(=S)N1CCN(c2ccccc2)CC1)c1ccc(S(=O)(=O)N2CCOCC2)cc1 | 37
O=C(CCSc1ccccc1)N1CCN(c2ccccc2)CC1 | 21
CCCn1cnc2scc(-c3ccc(C)cc3)c2c1=O | 4
COC(=O)c1sc(-c2ccc(Cl)cc2)cc1N | 27
COc1ccccc1CNCC(=O)NCc1ccc(C)cc1 | -2
CCCOC(=O)c1cccc(NC(=O)COc2ccc([N+](=O)[O-])cc2)c1 | 5
Cc1ccc(C(=O)N/N=C2\CC3CC=CC23)c(C)c1 (stereo unspecified) | 9
O=C(CSc1nc2ccccc2c(=O)n1-c1ccc(F)cc1)Nc1ccc2c(c1)CCC2 | 13
Cc1cc(N)c2ccccc2n1 | -2
Cc1ccc(/C=C/C(=O)OCC(=O)NC(C)C)o1 | 6
CC(=O)c1ccc(N2CCN(C(=O)/C=C/c3ccc(S(=O)(=O)NCc4ccco4)cc3)CC2)cc1 | 18
Cc1ccc(S(=O)(=O)CNC(=S)c2cccc(Cl)c2)cc1 | 12
N=c1c2cn[nH]c2nc(SCC(=O)c2ccc(Br)cc2)n1-c1ccc(Br)cc1 | 16
Cc1nn(C)c(C)c1/C=C(\C#N)C(N)=O | 3
O=C1CCCc2c1nc(-c1ccc([N+](=O)[O-])cc1)n2O | 7
Clc1ccccc1-c1nnc2sc(-c3ccccn3)nn12 | 5
COc1ccc(OCc2nnc(SCC(=O)c3ccccc3)o2)cc1 | 15
CC(C)(C)NC(=O)c1cccc(NC(=O)Cc2ccc(Br)cc2)c1 | 20
O=C(O)c1cc2c(cc1Cl)N1CCCCCC1=NS2(=O)=O | -7
O=S(=O)(CCN1CCSCC1)c1ccc(Cl)cc1 | 5
O=C(NC1CCCC1)c1n[nH]c2ccccc12 | 13
CC(C)(ONC(=O)Nc1ccccc1Cl)C(=O)O | 1
COc1ccc([N+](=O)[O-])cc1NC(=S)NC(NC(C)=O)C(Cl)(Cl)Cl (stereo unspecified) | 7
COc1ccc(NC(=O)c2ccc3ccccc3n2)cc1S(=O)(=O)N1CCCCC1 | 18
c1ccc(CCn2c(SCc3ccccc3)nnc2-c2ccncc2)cc1 | -2
CCN(CC)S(=O)(=O)c1ccc(NC(=O)c2cc(=O)[nH]c3ccccc23)cc1 | 12

A draw from above in order of molecular weight, highest first.
mol | Calb biofilm kill
c1ccc(COC2CCCN(Cc3nc(-c4cccs4)no3)C2)nc1 (stereo unspecified) | 16
C=CCOc1c(Br)cc(CNc2nccs2)cc1OC | 15
COc1ccccc1CNc1ncnc2c1cnn2-c1ccccc1 | 15
CC(=O)N(c1ccc(Cl)cc1)c1cn(C(C)=O)c2ccccc12 | 16
COc1ccc(C(=O)NC(=S)N2CCOCC2)cc1OC | 2
C=CCNC(=O)N[C@@H](Cc1ccccc1)C(=O)OC | 8
Cc1nn(C)c(C)c1/C=C(\C#N)C(N)=O | 3

6 records picked at random from the list so far, as already listed:
mol | Calb biofilm kill
c1ccc(CCn2c(SCc3ccccc3)nnc2-c2ccncc2)cc1 | -2
O=C(O)c1cc2c(cc1Cl)N1CCCCCC1=NS2(=O)=O | -7
COc1ccc(OCc2nnc(SCC(=O)c3ccccc3)o2)cc1 | 15
CCN(CC)S(=O)(=O)c1ccc(NC(=O)c2cc(=O)[nH]c3ccccc23)cc1 | 12
COc1ccc(NC(=O)c2ccc3ccccc3n2)cc1S(=O)(=O)N1CCCCC1 | 18
O=S(=O)(CCN1CCSCC1)c1ccc(Cl)cc1 | 5

Next part.
mol | Calb biofilm kill
COc1cccc(NC(=S)N2CCN(C(c3ccccc3)c3ccccc3)CC2)c1 | -2
CCOC(=O)N1CCN(c2cc(=O)n(Cc3ccc(F)cc3)c(=O)[nH]2)CC1 | 9
Cc1cc(=O)oc2cc(OCC(=O)N3CCOCC3)ccc12 | -10
Cc1ccc2[nH]c(O)c(N=NC(N)=S)c2c1 | 29
O=C(CNC(=O)c1cc(=O)[nH]c2ccccc12)Nc1ccc(F)c(F)c1 | 5
Cc1ccc(/C=[N+](\[O-])c2ccc(N(C)C)cc2)c2nsnc12 | 7
O=C1CC(N2CCCCC2)C(=O)N1c1ccccc1 (stereo unspecified) | 13
N/C(=N\OC(=O)CCCc1ccccc1)c1ccccn1 | 15
COc1ccc(/C=C/C(=O)OCC(=O)NCc2cccs2)cc1OC | 10
COc1cccc(CN2CCNC(=O)C2CC(=O)NCCn2nc(C)cc2C)c1OC (stereo unspecified) | 21
O=C(O)Cn1nc(C(F)(F)F)c2c1CCCC2 | 11
CCN(CC)CCCN1C=C2C(=O)C(C)(OC(=O)C3CCCC3)C(=O)C(c3ccccc3)=C2C=C1CCCC(=O)OC (stereo unspecified) | -2
COc1ccc(NC(=O)/C(=C\c2ccncc2)NC(=O)c2ccccc2)cc1 | 12
CC(NCc1ccccc1O)c1ccccc1 (stereo unspecified) | 6
CCOC(=O)c1cc(C#N)c(Nc2ccccc2OC)nc1C(F)(F)F | 15
O=C(O)CCc1ccc(-c2ccccc2)n1NC(=O)c1cccs1 | 17
